Assay outcomes: PubChem, Center for Chemical Genomics, University of Michigan
HIV TAR-Tat: HIV-1 TAR-Tat binding disruption. HIV-1 TAR RNA, Tat peptide displacement FRET; stronger effect = higher value. z-score (test concentration not listed). 100,000 compounds, 0.6% hits;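 further: score is relative to mean and SD of negative controls; some compounds called inactive have numbers as strong as hits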
CDC25B CDK2 inh: human CDC25B-CDK2/CyclinA binding inhibition; HTRF CDC25B-CDK2/CyclinA binding, anti-His/anti-Flag; stronger effect = higher value; z-score (concentration not given with the values); 94,000 compounds, 0.72% hits; P30305+P24941;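 further: score is relative to mean and SD of negative controls; strong numbers were not always called active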
Starred values were filed as active, the others as inactive; . = not tested or not shown.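 How the source made its calls: active means z-score from 3 up in half or more of its runs; inactive means the rest.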 An unsorted share of the library. Share with any hit: about 0.9%.

SMILES | HIV TAR-Tat | CDC25B CDK2 inh
Cn1cnc2c(=O)oc3ccc(S(=O)(=O)N4CCN(C(=O)c5ccco5)CC4)cc3c21 | 0.49 | .
Cn1ncc2c(Nc3ccc(F)cc3)nc(N3CCOCC3)nc21 | 1.8 | .
O=S(=O)(NCc1ccc2c(c1)OCO2)c1ccc(-n2cccn2)cc1 | 1 | .
CC1=C(C(=O)Nc2ccc(Br)cn2)C(c2ccc(C)cc2)C2=C(CC(C)(C)CC2=O)N1 (configuration not stated) | 0.36 | -1.8
Clc1ccc(Oc2ncnc3sc4c(c23)CCCC4)cc1 | . | 0.02
Cc1cc(C)cc(N2C(=O)C3CN=NC3(C)C2=O)c1 (configuration not stated) | 1.1 | 0.26
Cc1c(C(=O)NCc2ccc3c(c2)OCO3)oc2ccc3c(c12)C(=O)CC1(CCCCC1)O3 | -0.32 | -2.5
O=C(c1cccc(F)c1)N1CCN(C(=O)c2cc3n(n2)C(C(F)(F)F)CC(c2ccco2)N3)CC1 (configuration not stated) | 2.4 | -0.4
Cc1ccc(C(=O)NC2CCCCC2)cc1NC1=NC2CS(=O)(=O)CC2S1 (configuration not stated) | -0.32 | .
CCOC(=O)c1cnc(SCC(=O)O)nc1N | 0.84 | .
Cc1ccc(C2C=C(c3ccc(Br)cc3)Nc3nc(CCCO)nn32)cc1 (configuration not stated) | . | -0.5
CCOC(=O)c1cnn(-c2cc(C)nc3c(-c4ccc(C)cc4)c(C(F)(F)F)nn23)c1N | 1 | -0.87
O=C1CCCC2=C1C(c1ccco1)N(C(=O)CSc1ccc(Cl)cc1)c1ccccc1N2 (configuration not stated) | 1.3 | .
CCC(C)NC(=O)C1CCC(CNS(=O)(=O)c2ccc3c(c2)CC(C)N3C(C)=O)CC1 (configuration not stated) | -0.12 | .
O=C(Nc1nn2c(-c3ccccc3)nnc2s1)c1ccccc1 | 2.7 | -0.53
COc1ccc(Nc2nc(N3CCC(C)CC3)nc(N)c2[N+](=O)[O-])cc1 | 1.2 | .
CCOC(=O)CCc1c(C)nn(-c2ccc(Cl)nn2)c1C | 0.79 | -1.2
CCOC(=O)N1CCN(C(=O)c2[nH]nc3c2CCc2cc(OC)ccc2-3)CC1 | 0.45 | .
Cc1cc(C)nc(NS(=O)(=O)c2ccc(NC(=O)c3nccnc3C(=O)O)cc2)n1 | . | -0.71
Cc1cc(-c2ccc(C(C)C)c(S(=O)(=O)N3CC=C(c4ccccc4)CC3)c2)on1 | -0.65 | .

Grouped by structure: the compounds so far with a COOH group.
SMILES | HIV TAR-Tat | CDC25B CDK2 inh
CCOC(=O)c1cnc(SCC(=O)O)nc1N | 0.84 | .
Cc1cc(C)nc(NS(=O)(=O)c2ccc(NC(=O)c3nccnc3C(=O)O)cc2)n1 | . | -0.71

The listing continues:
SMILES | HIV TAR-Tat | CDC25B CDK2 inh
COc1ccc(C2Nc3ccc(C(=O)c4ccccc4)cc3NC3=C2C(=O)CC(C)(C)C3)cc1 (configuration not stated) | 0.82 | -0.75
COc1ccc(-c2noc(COc3ccc(C(C)C)cc3)n2)cc1 | 0.87 | -1.1
CCOc1ccccc1N1CC(c2nc3ccccc3n2CCCN(C)C)CC1=O (configuration not stated) | -1 | -1.7
CC(=O)c1c(C)oc2ccc(N(C(=O)c3ccncc3)S(=O)(=O)c3cc(C)ccc3C)cc12 | . | -1.3
CSc1ccc(C2CC(=O)NC3=C2C(=O)CC(c2ccc(F)cc2)C3)cc1 (configuration not stated) | 0.04 | 1.5
CSc1ncc(C(=O)Nc2ccc(Br)cc2F)c(C(F)(F)F)n1 | 0.64 | .
Cc1nc2cccc(C)n2c(=O)c1NC(=O)CC1CCCC1 | 1.4 | .
COCCN1C(=O)c2oc3ccccc3c(=O)c2C1c1ccc(O)cc1 (configuration not stated) | -0.84 | -0.9
O=C(c1cccc(F)c1)N1CCN(c2ccc3nnc(-c4ccccc4)n3n2)CC1 | 1.1 | -1.1
NC(=O)C1CCN(C(=O)CN2CCN(Cc3ccc4c(c3)OCO4)CC2)CC1 | 2.8 | -0.25
CCCC1c2ccc(C)n2CCN1C(=O)Nc1ccccc1 (configuration not stated) | -9.2 | -1.3
CCCOC(=O)c1ccc(-n2nnc3c(sc4nc(C)cc(COC)c43)c2=O)cc1 | 1.4 | -0.31
COc1ccc(-c2cc(=O)[nH]c(Sc3c(-c4ccccc4)c4cc(Cl)ccc4[nH]c3=O)n2)cc1 | -0.39 | -4
COc1ccc(-c2noc(-c3ccccc3)n2)cc1OC | 1.2 | -3
Nc1ccc(CCc2nc3ccc(N)cc3[nH]2)cc1 | 1.7 | 2.1
COc1ccc(NS(=O)(=O)c2ccc(-c3ccc(=O)[nH]n3)s2)cc1Cl | -0.21 | .
COc1ccc2c(c1)CCc1c(C(=O)N3CCOCC3)noc1-2 | . | -0.33
O=C(Nc1nccs1)c1ccc2noc(-c3ccc(Cl)cc3)c2c1 | -2.9 | -3.7
Cc1nc2sccn2c(=O)c1S(=O)(=O)Nc1ccc(Oc2ccc(Cl)cc2)cc1 | 0.43 | .
Cc1ccc(N2C(=O)N(c3cccc(Br)c3)C3CS(=O)(=O)CC32)cc1 (configuration not stated) | -0.08 | -0.72

Molecules above with bromine (four):
SMILES | HIV TAR-Tat | CDC25B CDK2 inh
CC1=C(C(=O)Nc2ccc(Br)cn2)C(c2ccc(C)cc2)C2=C(CC(C)(C)CC2=O)N1 (configuration not stated) | 0.36 | -1.8
Cc1ccc(C2C=C(c3ccc(Br)cc3)Nc3nc(CCCO)nn32)cc1 (configuration not stated) | . | -0.5
CSc1ncc(C(=O)Nc2ccc(Br)cc2F)c(C(F)(F)F)n1 | 0.64 | .
Cc1ccc(N2C(=O)N(c3cccc(Br)c3)C3CS(=O)(=O)CC32)cc1 (configuration not stated) | -0.08 | -0.72

The listing continues.
SMILES | HIV TAR-Tat | CDC25B CDK2 inh
CC1=C(C(=O)OCc2ccc3c(c2)OCO3)C(c2ccccc2C)CC(=O)N1 (configuration not stated) | 1 | -1.5
OCCN1CCN(c2cc(C(F)(F)F)nc3ccccc23)CC1 | . | -0.52
Cc1ccc(C)c(S(=O)(=O)N2CCc3cc4ccc(C)cc4nc32)c1 | -1.7 | -0.74
c1ccc(CCc2nc3ccccc3[nH]2)cc1 | 0.52 | 0.45
Cc1nc2c(F)c(F)c(F)c(F)c2[nH]1 | . | 1.8
CC1CCN(S(=O)(=O)c2ccc3nc(N4CCN(c5ccccc5F)CC4)ccc3c2)CC1 | 1.2 | .
Cc1ccc(C2CC(=O)NC3=C2C(=O)CC(C)(C)C3)cc1 (configuration not stated) | 0.76 | -1.1
CC(C)(C)C(=O)NNc1ncnc2sccc12 | . | -1.2
COc1ccc(COC(=O)C2=C(C)NC3=C(C(=O)CCC3)C2c2ccc(F)c(F)c2)cc1 (configuration not stated) | 1.4 | .
Cc1ccc(CNC(=O)N2CCn3c(C)ccc3C2C(C)C)cc1 (configuration not stated) | 0.07 | .
O=C(CSc1cn(CC(=O)N2CCOCC2)c2ccccc12)Nc1ccc(Br)cc1 | 0.02 | .
COc1cc(C)c(C)cc1S(=O)(=O)Nc1cccc(-c2ccc(S(C)(=O)=O)nn2)c1 | -0.44 | .
Cc1cc2oc3c(c(=O)c2cc1C)C(c1ccccc1F)N(c1nccs1)C3=O (configuration not stated) | 2.4 | -1.4
O=C(O)C1CCN(C(=O)c2ccc3c(c2)OCO3)CC1 | . | -0.6
COCCNS(=O)(=O)c1cc2c3c(c1)CC(=O)N3CCC2 | 1.7 | .
CC(C)(C)/C(=N\C(=S)Nc1ccccc1)c1ccccc1 | . | -2.2
COCCn1c(-c2ccc(F)cc2)n[nH]c1=S | . | 0.15
CC(=O)Oc1ccc([C@H]2C(C#N)=C(N)OC3=C2C(=O)CC(C)(C)C3)cc1 | . | 1.7
O=C(Nc1ccc(F)cc1F)c1nc2ccccc2nc1Cl | 1.6 | -2.2
CCN(CC)S(=O)(=O)c1ccc2c(c1)N(CC(=O)O)C(=O)C1CCCCN21 (configuration not stated) | 1.2 | .

Compound profiles (already shown). Screens in order: HIV TAR-Tat	CDC25B CDK2 inh
CCN(CC)S(=O)(=O)c1ccc2c(c1)N(CC(=O)O)C(=O)C1CCCCN21 (configuration not stated) reads 1.2	.
Cc1cc2oc3c(c(=O)c2cc1C)C(c1ccccc1F)N(c1nccs1)C3=O (configuration not stated) reads 2.4	-1.4

More compounds:
SMILES | HIV TAR-Tat | CDC25B CDK2 inh
COc1cc(NC(=O)N2CCN(c3cc(N4CCOCC4)nc(C)n3)CC2)cc(OC)c1 | 0.9 | -1.6
CCCC(=O)Nc1sc2c(c1C#N)CC(C(C)C)OC2 (configuration not stated) | 0.59 | 0.42
CCc1nnc2c(Nc3cccc(Cl)c3)nc3ccccc3n12 | 1.7 | 1.4
CC1CCCC(NC(=O)c2n[nH]c(=O)c3ccccc23)C1C (configuration not stated) | 0.09 | -2.4
COc1ccc(-c2nc3nc(C)c(Cl)c(C)n3n2)cc1 | 2.7 | -2.7
CC1(C)CC(=O)C2=C(C1)N(CCN1CCOCC1)C1=C(C(=O)CC(C)(C)C1)C2c1ccc(Cl)cc1 | -1.3 | -1.2
COc1ccc(/C=C2\N=C(c3ccccc3)OC2=O)cc1 | . | -0.78
O=C(Nc1ncc(Cc2ccc(Cl)cc2)s1)c1cc2ccccc2c(=O)s1 | 0.82 | -1.2
CN(C1CCCCC1)S(=O)(=O)c1ccc(N2CCCCS2(=O)=O)cc1 | -0.62 | .
Cc1nc(N2C(=O)c3oc4ccccc4c(=O)c3C2c2ccc(C(C)C)cc2)sc1C (configuration not stated) | 1.3 | 0.24
COc1ccc(C2Nc3ccc(Br)cc3-c3nnc(SC)nc3O2)cc1O (configuration not stated) | -0.15 | -0.61
CCn1c(SCC(=O)NC2CCCC2)nc2c(c1=O)SCC2 | -1.3 | -0.35
C=CCNC(=O)c1cc2c(n(-c3ccc(Cl)cc3)c1=O)CC(C)(C)CC2=O | -1.2 | 1.1
COc1ccc2nc(Nc3nc(C)cc(-c4ccccc4)n3)nc(C)c2c1 | 1.1 | -0.86
CCOc1c(Br)cc(C2C=C(C(=O)O)Nc3ncnn32)cc1OC (configuration not stated) | -1.4 | -1.7
Cc1ccc(C2CC(C(F)(F)F)n3ncc(C(=O)NCC4CCCO4)c3N2)cc1 (configuration not stated) | 3.5 | 0.14
CC(=O)OC[C@H]1OC=C[C@@H](OC(C)=O)[C@@H]1OC(C)=O | . | -0.78
CCc1nn(CC(=O)OC)c(=O)c2cc3sc(C)cc3n12 | 1.9 | -1.8
COc1ccccc1N1CCN(CCCCNC(=O)c2ccc3ccccc3c2)CC1 | . | -0.77
Cc1ccc(-c2nn3c(=O)c4ccccc4nc3c3ccccc23)cc1 | . | -0.97
Cc1cc(C)n(CCc2nc3c4ccccc4nc(N4CCN(c5ccc(F)cc5)CC4)n3n2)n1 | -1.6 | -1.6
COc1cc2[nH]c(=O)n3nc(C)nc3c2cc1OC | 0.89 | 0.35
N#CCOc1nc(-c2ccccc2)cc(-c2ccco2)c1C#N | . | -5.9
COc1ccc(S(=O)(=O)[C@H]2CS(=O)(=O)C[C@@H]2N2CCN(c3ccc(F)cc3)CC2)cc1 | -0.41 | -1.7
CC(=O)O[C@H]1CC[C@@]2(C)C(C[C@H](OC(C)=O)[C@@]3(C)C4=CC(=O)OC(c5ccoc5)[C@]4(C)CCC23)C1(C)C (some centres not stated) | 2.5 | .
CCOC(=O)C1CCN(S(=O)(=O)c2ccc3oc(=O)c4ncn(C)c4c3c2)CC1 | -0.64 | .
CCCC1=C(C(=O)OCC)C(c2cc(OC)c(OC)c(OC)c2)NC(=O)N1 (configuration not stated) | . | 0.71
Cc1cc(S(=O)(=O)n2nc(-c3cccc(F)c3)cc2N)ccc1F | . | 3.1
CCN(CCN)c1ccc2c(=O)[nH][nH]c(=O)c2c1 | -0.46 | -1.6
CC(C)(C)c1cc2nc(N)nc(N)n2n1 | . | -1.2
CCc1nc(SCC(=O)N(C)c2ccccc2)c2c3c(sc2n1)COC(C)(C)C3 | 0.02 | -1.5
CCOCCCNC(=O)c1cnc(N2CCOCC2)nc1C | 0.54 | .
COc1cccc(-c2nc(SCCOc3ccccc3OC)n3[nH]c(=O)cc3n2)c1 | 1.1 | .
CCOC(=O)Cc1csc(=S)n1-c1ccc(OC)cc1 | 0.28 | -1.2
Brc1ccc(OCc2cn3ccccc3n2)cc1 | -0.71 | 0.27
COCCCn1c2c(c(=O)[nH]c1=O)C(c1ccc(Cl)cc1)C1=C(N2)c2ccccc2C1=O (configuration not stated) | -0.1 | -0.31
Clc1cccc(-n2ncc3c(N4CCN(Cc5ccccc5)CC4)ncnc32)c1 | 0.7 | .
N#C/C(=C\c1cccs1)c1ccc(NC(=O)c2ccc(Cl)cc2)cc1 | . | -2
O=C(NC(Cc1ccccc1)C(=O)O)c1cccnc1Cl (configuration not stated) | . | -0.77
Cc1ccc(N2COc3cc4c(cc3C2)OCO4)cc1C | . | -2
CCCn1c(=O)c2sccc2n2c(CCCC(=O)N3CC(C)CC(C)C3)nnc12 (configuration not stated) | 0.11 | .
Cn1nc(C(=O)N2CCN(Cc3ccc4c(c3)OCO4)CC2)c2c1-c1ccccc1OC2 | 1.6 | 0.53
CCCc1oc2ccc(NS(=O)(=O)c3ccc(OCC)cc3)cc2c1C(=O)OCC | 1.3 | -0.1
Cc1ccc2scc(N3CCN(Cc4ccccc4)CC3)c(=O)c2c1 | 0.7 | .
Cn1c(CN2CCOCC2)nc2cc(NS(=O)(=O)c3ccc(F)cc3)ccc21 | 0.76 | 1.4
CCNC(=O)N(Cc1nc(-c2ccc(C)cc2)no1)C(C)C | -0.02 | -1.8
